Bioassay records from PubChem BioAssay.
Biofilm kill mix: mixture kills Candida albicans biofilm cells; inhibition, % at 7.6 µM; C. albicans biofilm persisters + clotrimazole, fluorescence viability; primary screen in compound mixtures of four per well; 120,000 compounds, 0.02% hits;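 active means inhibition above 30.3% in the primary screen of four-compound pools, then above 30% when the compound was retested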;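 further: compounds exposed to preformed 24 h biofilms for 48 h; the number belongs to the whole pool; some results filed as inactive read as strong as hits; inactives centre near 12; 0% = biofilm with clotrimazole alone and 100% = kill control; retested singly at about 60 µM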
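Test system: C. albicans CAF4-2 wild-type biofilms; buffer or medium: RPMI/MOPS medium, pH 7.0; schedule: 24 h biofilm formation, then 48 h compound exposure, 37 °C; detection: Alamar Blue fluorescence; measure: percent inhibition of biofilm viability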
* marks the source's active call; other numbers are inactive results. Some of the compounds tested; the hit share may differ from the screen's.

Results for COc1cccc(NC(=O)Nc2ccccc2Br)c1 ?
Biofilm kill mix: 20

What do the screens show for `Cc1ccccc1OCC(O)Cn1c(=N)n(CCN2CCOCC2)c2ccccc21` (stereo not given)?
Biofilm kill mix: 0

How did Fc1cc(Br)ccc1NC(=S)Nc1ccccc1 do in these assays?
Biofilm kill mix: -8

How did NC(=O)COC(=O)c1cccc(S(=O)(=O)N2CCCc3ccccc32)c1 do in these assays?
Biofilm kill mix: 6

What do the screens show for `Cc1ccc2[nH]cc(CCNC(=O)/C=C/c3ccco3)c2c1`?
Biofilm kill mix: 12

What do the screens show for `CC1CCC/C(=N\NC(=O)COc2ccccc2Cl)C1` (stereo not given)?
Biofilm kill mix: 16

How did CC(=O)N(NC(=O)c1ccc(C)cc1)C1CC(=O)N(c2ccccc2Cl)C1=O (stereo not given) do in these assays?
Biofilm kill mix: -6

How did Cc1ccc(NC(=O)Nc2ccc([N+](=O)[O-])cc2)nc1 do in these assays?
Biofilm kill mix: 15

What do the screens show for `COc1cccc(-n2c(SCc3cc(=O)oc4cc(O)c(O)cc34)nc3ccccc3c2=O)c1`?
Biofilm kill mix: 4

How did CC(C)CCN1CCN(CC(c2ccccc2)c2ccccc2)CC1CCO (stereo not given) do in these assays?
Biofilm kill mix: 17

Results for O=C(NC1CCCCC1)C1CCN(C(=O)c2ccc(-c3ccccc3)cc2)CC1 ?
Biofilm kill mix: 9

How did On1nnc2ccccc21 do in these assays?
Biofilm kill mix: 10

Results for Cc1nc(C(C)NC(=O)CCc2nnc(-c3ccsc3)o2)cs1 (stereo not given) ?
Biofilm kill mix: 15

Results for O=C(NC1CCCC1)c1cccc(Cn2cc([N+](=O)[O-])cn2)c1 ?
Biofilm kill mix: 19

How did C/C=C(/C)C(=O)O[C@H]1[C@@H](O)c2c(ccc3ccc(=O)oc23)OC1(C)C do in these assays?
Biofilm kill mix: 16

What do the screens show for `CN(C)CCNC(=S)Nc1ccc(Cl)cc1Cl`?
Biofilm kill mix: -5

Results for COc1ccccc1C1NC=C([N+](=O)[O-])C=C1[N+](=O)[O-] (stereo not given) ?
Biofilm kill mix: 16

What do the screens show for `COc1cc(/C=C/C(=O)O)cc(S(=O)(=O)N2CCCc3ccccc32)c1OC`?
Biofilm kill mix: 25

Results for NS(=O)(=O)c1cccc(NC(=O)CN2CCN(Cc3ccc4c(c3)OCO4)CC2)c1 ?
Biofilm kill mix: 7

What do the screens show for `COC(=O)c1sc2ccccc2c1NC(=O)c1ccc(S(=O)(=O)N2CCC(C)CC2)cc1`?
Biofilm kill mix: 14

How did CCCCCCN(C(=O)CCCCCN1C(=O)NC(c2ccccc2)C(C(=O)OCc2ccccc2)=C1C)C(C(=O)NCCCC)c1ccc(OCC(=O)OC)c(C(=O)OC)c1 (stereo not given) do in these assays?
Biofilm kill mix: 1

What do the screens show for `NC(=O)[C@@H]1CC2(CC(c3cccc(NC(=O)CC(c4ccccc4)c4ccccc4)c3)=NO2)CN1C(=O)COc1ccc(Cl)cc1` (stereo not given in full)?
Biofilm kill mix: -1

Results for O=C(CCNC(=O)c1ccccc1Cl)Nc1nc(-c2ccc3ccccc3c2)cs1 ?
Biofilm kill mix: 13

Results for O=C(Nc1cccc(S(=O)(=O)NC2=NCCCCC2)c1)c1cccnc1Cl ?
Biofilm kill mix: 13

Results for CC(/C=N/n1c(-c2n[nH]c3c2CCC3)n[nH]c1=S)=C\c1ccco1 ?
Biofilm kill mix: 19

How did COc1ccccc1-n1cnnc1SC(C)C(=O)Nc1ccc(NC(C)=O)cc1 (stereo not given) do in these assays?
Biofilm kill mix: 1

Results for N#CCCN1CCCc2cc(N=Nc3ccc(C(F)(F)F)cc3)ccc21 ?
Biofilm kill mix: 13

Results for COCC(=O)n1cc(C(=O)OC)c2ccccc21 ?
Biofilm kill mix: 5

How did O=S(=O)(c1ccc(NC(=S)NCc2ccncc2)cc1)N1CCCCC1 do in these assays?
Biofilm kill mix: 16

Results for CCCC(=O)NCn1nnc(-c2ccc(Cl)cc2)n1 ?
Biofilm kill mix: 8

What do the screens show for `COc1ccc(CCN(C)S(=O)(=O)c2ccc(Cl)nc2)cc1OC`?
Biofilm kill mix: 12

How did Cc1ccc(SCC(=O)NN=C2CCN(C)CC2)cc1 do in these assays?
Biofilm kill mix: 6

How did O=C(NCc1ccncc1)C(=O)NCc1ccncc1 do in these assays?
Biofilm kill mix: -2

Results for COc1ccc(CNS(=O)(=O)NCc2ccc(C)cc2)cc1OC ?
Biofilm kill mix: 20

Results for Cc1cc(OCCCCNC(C)C)cc(C(C)C)c1 ?
Biofilm kill mix: 14

What do the screens show for `COC(=O)/C(C#N)=C\c1c(OC)[nH]c2ccccc12`?
Biofilm kill mix: -2

Next part, starting with the last 3 of the part before.
Results for COc1ccc(CNS(=O)(=O)NCc2ccc(C)cc2)cc1OC ?
Biofilm kill mix: 20

Results for Cc1cc(OCCCCNC(C)C)cc(C(C)C)c1 ?
Biofilm kill mix: 14

What do the screens show for `COC(=O)/C(C#N)=C\c1c(OC)[nH]c2ccccc12`?
Biofilm kill mix: -2

What do the screens show for `CC1(NC(=S)Nc2ccc(NC(=S)NC3(C)CCS(=O)(=O)C3)cc2)CCS(=O)(=O)C1` (stereo not given)?
Biofilm kill mix: 17

How did N=C1c2ccccc2CN1NC(=O)COc1ccc(Cl)cc1 do in these assays?
Biofilm kill mix: 15

What do the screens show for `CC(C)N(C)CCOC(=O)C1COc2ccccc2O1` (stereo not given)?
Biofilm kill mix: 24

What do the screens show for `O=c1cc(O)nc(SCc2ccccc2)n1-c1ccc(Cl)cc1`?
Biofilm kill mix: 16

Results for COc1ccc(C2Nc3ccccc3C(=O)N2c2ccc(C)cc2)cc1COc1ccccn1 (stereo not given) ?
Biofilm kill mix: 9

How did O=C(Cn1c(NCCO)nc2ccccc21)NCC(F)(F)F do in these assays?
Biofilm kill mix: 16

What do the screens show for `CCCCNC(=O)C(c1ccc(OCC(=O)OC)c(C(=O)OC)c1)N(CCOC)C(=O)CCCCCN1C(=O)NC(c2ccc(-c3ccccc3)cc2)C(C(=O)OCc2ccccc2)=C1C` (stereo not given)?
Biofilm kill mix: 14

Results for CC(C)NC(=O)COC(=O)c1ccc(S(=O)(=O)N2CCCC2)cc1 ?
Biofilm kill mix: 13

How did COc1ccc(/C=C/C(=O)c2cc3c(cc2N)OCO3)cc1 do in these assays?
Biofilm kill mix: 7

What do the screens show for `O=C1COC(c2ccccc2)C2CCCCN12` (stereo not given)?
Biofilm kill mix: 16

Results for COc1cc(/C=N/NC(=O)CC#N)cc(Br)c1O ?
Biofilm kill mix: -5

How did Cc1ccc(C(=O)NCCn2ccc3ccccc32)cc1[N+](=O)[O-] do in these assays?
Biofilm kill mix: 17

Sorted by molar mass (descending): 6 of the compounds above.
What do the screens show for `CC1(NC(=S)Nc2ccc(NC(=S)NC3(C)CCS(=O)(=O)C3)cc2)CCS(=O)(=O)C1` (stereo not given)?
Biofilm kill mix: 17

How did O=S(=O)(c1ccc(NC(=S)NCc2ccncc2)cc1)N1CCCCC1 do in these assays?
Biofilm kill mix: 16

Results for CC(/C=N/n1c(-c2n[nH]c3c2CCC3)n[nH]c1=S)=C\c1ccco1 ?
Biofilm kill mix: 19

What do the screens show for `CN(C)CCNC(=S)Nc1ccc(Cl)cc1Cl`?
Biofilm kill mix: -5

How did Cc1ccc(SCC(=O)NN=C2CCN(C)CC2)cc1 do in these assays?
Biofilm kill mix: 6

Results for Cc1cc(OCCCCNC(C)C)cc(C(C)C)c1 ?
Biofilm kill mix: 14

The listing continues.
What do the screens show for `O=C1CCCC(O)=C1N=Nc1cccc(C(=O)O)c1`?
Biofilm kill mix: -1

Results for COc1ccc2cc3c(N)nn(C(=O)c4ccc(F)cc4)c3nc2c1 ?
Biofilm kill mix: 15

What do the screens show for `O=C(c1cccc([N+](=O)[O-])c1)N1CC2C3C=CC(C3)C2C1` (stereo not given)?
Biofilm kill mix: 18

How did FC(F)Oc1ccc(/C=N/c2c(-c3ccc(OC(F)F)cc3)nc3n2CCS3)cc1 do in these assays?
Biofilm kill mix: 14

How did COc1ccc(NC2=CC(c3cccc(OC)c3)N(c3ccc(OC)cc3)C2=O)cc1 (stereo not given) do in these assays?
Biofilm kill mix: 13

What do the screens show for `COc1cccc(OC)c1C(=O)NC(=S)NNC(=O)[C@H]1C[C@@H]1c1ccccc1`?
Biofilm kill mix: 22

How did COc1ccc(N2CCN(C(=O)CCNC(=O)Cn3ccc4ccccc4c3=O)CC2)cc1 do in these assays?
Biofilm kill mix: 24

How did NNC(=O)CNC(c1ccccc1)c1cc(Br)ccc1NC(=O)c1ccc(Br)cc1 (stereo not given) do in these assays?
Biofilm kill mix: -1

What do the screens show for `Cn1nc(C(=O)Nc2cccc(S(N)(=O)=O)c2)c2ccccc2c1=O`?
Biofilm kill mix: 16

How did Cn1nc(C(=O)OCc2ccccc2F)c2ccccc2c1=O do in these assays?
Biofilm kill mix: 5

Results for CC1=NNC(=O)C1CCC(=O)N/N=C/c1ccc(C)cc1 (stereo not given) ?
Biofilm kill mix: 17

Results for O=C1C2C3c4ccccc4C(c4ccccc43)[C@@H]2C(=O)N1c1nc(-c2ccccc2)cs1 (stereo not given in full) ?
Biofilm kill mix: 3

What do the screens show for `Cn1c(COc2ccc([N+](=O)[O-])cc2)nnc1SCC(N)=O`?
Biofilm kill mix: 4

How did CCCCC(C)(O)C/C=C/[C@H]1[C@H](O)CC(=O)[C@@H]1CCCCCCC(=O)OC (stereo not given in full) do in these assays?
Biofilm kill mix: 6

Results for COc1ccc(/C=C/C(=O)c2ccccc2O)cc1 ?
Biofilm kill mix: 9

Results for COC(=O)/C(C#N)=C/c1cc(C)sc1C ?
Biofilm kill mix: 20

Results for N=c1sccn1CC(=O)Nc1cccc(S(=O)(=O)N2CCCCCC2)c1 ?
Biofilm kill mix: 25

How did CC(=O)Nc1ccc(NC(=O)c2c([N+](=O)[O-])c(C(C)(C)C)nn2C)cc1 do in these assays?
Biofilm kill mix: 6

How did N/C(CN1CCCC1=O)=N\OC(=O)c1ccc(Cl)cc1 do in these assays?
Biofilm kill mix: 9

How did CCN(CC)CCNC(=O)c1ccc(Sc2ccc(Cl)cc2)c(NC(C)=O)c1 do in these assays?
Biofilm kill mix: 14

What do the screens show for `O=C(Cc1ccc([N+](=O)[O-])cc1)c1c(O)cc(O)cc1O`?
Biofilm kill mix: 24

How did CCCn1nnc(NC(=O)/C=C/c2ccco2)n1 do in these assays?
Biofilm kill mix: 1

Results for CC(C)C[C@H](NC(=O)c1[nH]cnc1C(=O)Nc1ccccc1)C(=O)OC(C)(C)C ?
Biofilm kill mix: 12

How did COC(=O)c1ccc(C(=O)OC)c(NC(=S)N2CCN(c3ccccn3)CC2)c1 do in these assays?
Biofilm kill mix: 11

Brought forward from above: 2 entries, then new ones.
Results for CC(C)C[C@H](NC(=O)c1[nH]cnc1C(=O)Nc1ccccc1)C(=O)OC(C)(C)C ?
Biofilm kill mix: 12

How did COC(=O)c1ccc(C(=O)OC)c(NC(=S)N2CCN(c3ccccn3)CC2)c1 do in these assays?
Biofilm kill mix: 11

How did COc1ccc2[nH]cc(CCNC(=O)C3CCCO3)c2c1 (stereo not given) do in these assays?
Biofilm kill mix: 14

What do the screens show for `COc1ccc(CNc2nc3ccccc3n2Cc2ccc(C)cc2)cc1OC`?
Biofilm kill mix: 8

How did COCCCNc1nc2c(-c3cccc(C(F)(F)F)c3)nnn2c2ccccc12 do in these assays?
Biofilm kill mix: 0

Results for COc1ccccc1C(O)(C(=O)NN(C)c1ccccc1)c1ccccc1OC ?
Biofilm kill mix: 13

Results for COC(=O)c1ccc(Cn2cnc3c(cnn3-c3ccc(Cl)cc3)c2=O)o1 ?
Biofilm kill mix: 12

Results for Oc1ccc(/C=N/N2CCN(c3ccccn3)CC2)cc1 ?
Biofilm kill mix: 12

Results for Cc1ccc(NC(=O)CN(C)C(=O)c2ccc(Cl)c([N+](=O)[O-])c2)cc1 ?
Biofilm kill mix: 13

How did CCN(CC)CC#CC(O)(c1ccccc1)c1ccccc1 do in these assays?
Biofilm kill mix: 9

Results for COc1ccc(S(=O)(=O)c2cnc3ccc(OC)cc3c2N2CCC3(CC2)OCCO3)cc1 ?
Biofilm kill mix: 13

Results for O=C(C1=C[C@@H]2[C@H]3C(=O)N(c4ccc(Cl)cc4)C(=O)[C@H]3[C@@H](C(=O)c3ccc(Cl)cc3)N2C=C1)c1ccccc1 ?
Biofilm kill mix: 12

Results for Cn1cc(C(=O)C(=O)N2CCCc3ccccc32)c2ccccc21 ?
Biofilm kill mix: -2

How did C[C@@H]1NC(=O)[C@H](CCC(N)=O)NC(=O)c2cc([N+](=O)[O-])cc(I)c2NCCC[C@@H](C(N)=O)NC1=O do in these assays?
Biofilm kill mix: 13

What do the screens show for `CCCCN(C(=O)c1ccc(Cl)c([N+](=O)[O-])c1)c1c(N)n(CCC)c(=O)[nH]c1=O`?
Biofilm kill mix: 1

What do the screens show for `O=C(c1ccc(S(=O)(=O)NCc2ccco2)cc1)N1CCN(Cc2ccccc2)CC1`?
Biofilm kill mix: 3

Results for CC(=O)N1CCN(Cc2nc(-c3cccc(Cl)c3)no2)CC1 ?
Biofilm kill mix: 22

Results for COc1ccc(OCCNC(=O)/C=C/c2ccc([N+](=O)[O-])cc2)cc1 ?
Biofilm kill mix: 5

How did COc1ccc(N2CC(NC(=O)N(C)CCC#N)CC2=O)cc1 (stereo not given) do in these assays?
Biofilm kill mix: -4
